Rango release inh: prevents RanGTP from dissociating the Rango-importin beta complex. O95149+P62826. 0.071% of 340,000 active. Potency, µM (highest dose often 46.1 µM), without a hit: at the top dose activity change, negative = inhibition. Biochemical FRET Rango-importin beta, RanGTP-induced dissociation; active means falling FRET ratio curve, often poorly fitted, with flat reads before Ran was added; inconclusive means other falling curves, or compound fluorescence or quenching; inactive means flat or rising ratio curve;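 note: potency is the fitted concentration of half-maximal effect; % of control where 0% means no effect; nearly all actives have a fitted effect of over 45% in size; -100% = wells without RanGTP and RCC1; the record marks most hits as doubtful in a second field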
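Quantitative HTS using a FRET biosensor: 0.1 uM Rango, 0.25 uM importin beta, 0.6 uM Ran, 2 mM GTP, 0.2 uM RCC1 final, PBS with DTT, Tween-20 and BSA. Post-read taken 45 min after Ran addition.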
miR-21 FLuc: miR-21 reporter, rising signal; HeLa miR-21 FLuc reporter, luciferase, 48 h; Potency, µM (top dose mostly 38.3 µM), for inactives: top-dose reporter change, positive = more light; 340,000 tested, under 10 active; AID 2288; active = well fitted rising curve with a large enough effect; inconclusive = small, poorly fitted or top-dose-only effect; inactive = no such curve, though single readings can be large or run the other way;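 note: % of control where 0% means no effect; miR-21 action dims this reporter so a rising signal means less miR-21 action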
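HeLa cells endogenously expressing miR-21, stably carrying CMV-driven firefly luciferase with a downstream miR-21 binding site, 2000 cells/well. Titrations up to approximately 40 uM, 48 hours; luciferase luminescence read.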
GLA inh pH 4.5: blocks human alpha-galactosidase A at pH 4.5; AID 1467; P06280; activity change, negative = inhibition, % at 105 µM; 230,000 tested, under 10 active; purified enzyme, 4-MU-alpha-Gal fluorescence, pH 4.5; inconclusive = small, poorly fitted or top-dose-only inhibition, or a rising curve; inactive = flat fitted curve, though single readings scatter; no compound was filed as active;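 note: 0% = full activity with enzyme and -100% = basal without enzyme; dose as in the result columns while the protocol names 77 µM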
Rango-impB inh: prevents formation of the Rango-importin beta complex. Potency, µM (series often up to 92.2 µM), for inactives: at the highest dose inhibition of complex formation. 0.031% of 340,000 active. Q14974. AID 540263. Rango CFP/YFP FRET sensor + importin beta, 45 min; active = rising FRET ratio curve, often small or poorly fitted; inconclusive = mostly compound fluorescence or quenching in the first reads; inactive = flat curves in all reads;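 note: potency is the fitted concentration of half-maximal effect; 0% = DMSO wells and 100% = buffer wells lacking importin beta; nearly all actives have a fitted effect of over 15% in size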
Target sequence (Q14974 whole entry, looked up): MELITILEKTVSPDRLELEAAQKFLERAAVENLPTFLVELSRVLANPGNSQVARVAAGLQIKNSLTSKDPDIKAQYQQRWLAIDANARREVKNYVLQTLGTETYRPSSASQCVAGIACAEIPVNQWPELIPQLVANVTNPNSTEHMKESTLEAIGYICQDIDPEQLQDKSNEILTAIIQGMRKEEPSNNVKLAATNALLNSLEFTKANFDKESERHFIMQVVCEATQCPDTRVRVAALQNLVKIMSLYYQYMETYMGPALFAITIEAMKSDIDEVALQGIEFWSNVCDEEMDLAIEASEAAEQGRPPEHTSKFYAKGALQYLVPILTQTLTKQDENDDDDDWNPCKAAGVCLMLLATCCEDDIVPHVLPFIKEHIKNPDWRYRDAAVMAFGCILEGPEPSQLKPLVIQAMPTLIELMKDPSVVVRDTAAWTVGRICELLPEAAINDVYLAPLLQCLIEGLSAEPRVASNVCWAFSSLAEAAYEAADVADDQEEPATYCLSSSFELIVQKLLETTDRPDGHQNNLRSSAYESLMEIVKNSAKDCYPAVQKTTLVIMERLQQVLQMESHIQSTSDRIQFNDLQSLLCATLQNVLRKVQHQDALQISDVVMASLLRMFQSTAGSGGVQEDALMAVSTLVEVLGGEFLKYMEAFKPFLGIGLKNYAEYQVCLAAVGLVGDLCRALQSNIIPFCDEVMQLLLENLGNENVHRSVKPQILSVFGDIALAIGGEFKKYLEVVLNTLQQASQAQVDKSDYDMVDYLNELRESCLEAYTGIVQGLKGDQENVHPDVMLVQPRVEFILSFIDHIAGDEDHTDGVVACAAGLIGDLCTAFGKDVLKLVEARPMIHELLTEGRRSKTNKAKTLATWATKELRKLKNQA
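Inhibition scored from the CFP 486 nm/YFP 530 nm FRET ratio 45 min after adding 0.125 microM importin beta to 50 nM Rango biosensor preincubated 5 min with compound (room temperature, PBS with DTT, Tween-20, BSA). No-importin wells as positive control.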
* marks the source's active call; other numbers are inactive results; ? = inconclusive; / = not tested or not shown; & = joins results of further samples; [ ] = another dose, or the depositor's remark.

Preview, 2 compounds:
no. | Rango release inh | miR-21 FLuc | GLA inh pH 4.5 | Rango-impB inh | Molecule
1 | -1% | / | / | -1.3% | CCCCCCCNC(=O)C1(CC2CC(c3cccc(Br)c3)=NO2)CCN(C(=O)c2cc(OCC)c(OCC)c(OCC)c2)CC1 (stereo unspecified)
2 | -12% | ? | -7 | -3.3% | O=C(CCl)N(c1ccccc1)c1ccccc1

The listing, from the start:
no. | Rango release inh | miR-21 FLuc | GLA inh pH 4.5 | Rango-impB inh | Molecule
1 | -1% | / | / | -1.3% | CCCCCCCNC(=O)C1(CC2CC(c3cccc(Br)c3)=NO2)CCN(C(=O)c2cc(OCC)c(OCC)c(OCC)c2)CC1 (stereo unspecified)
2 | -12% | ? | -7 | -3.3% | O=C(CCl)N(c1ccccc1)c1ccccc1
3 | -4% | -14% | / | 0.4% | Cn1ncc2c(Nc3cccc([N+](=O)[O-])c3)ncnc21
4 | 1% | -3% | -2 | -0.3% | CCOC(=O)C1=C(C)Nc2nnnn2C1c1ccccc1Cl (stereo unspecified)
5 | -6% | -1% | 6 | -2.9% | COc1ccc(NC(=O)COC(=O)C(CC(C)C)N2C(=O)C3CC=CCC3C2=O)cc1Cl (stereo unspecified)
6 | -9% | -5% | 2 | -0.1% | O=c1[nH]cnc2sc3c(c12)CCC3
7 | 1% | / | 4&-4 | 0.8% | COc1cc2c(CCNC(C)=O)c[nH]c2cc1Cl
8 | -5% | -5% | -3 | 6.9% | O=C(NN1C(=O)C2C(c3ccccc3)C=CC(c3ccccc3)C2C1=O)c1cccc(Br)c1 (stereo unspecified)
9 | 16% | / | / | -3.2% | O=C(COC(=O)C1(c2ccc(F)cc2)CCCC1)N1CCNC1=O
10 | 1% | 0% | / | 2.2% | CC1CCN(Cc2c(C(=O)N/N=C/c3ccc(C(C)(C)C)cc3)nnn2-c2nonc2N)CC1
11 | 23% | / | / | 0.8% | O=C(N1CCc2cc(S(=O)(=O)NC[C@H]3O[C@@H](n4ccc(=O)[nH]c4=O)[C@H](O)[C@@H]3O)ccc2C1)C(F)(F)F
12 | -1% | -1% | / | -0.1% | Cc1ccc(/C=N/n2c(-c3ccccc3)n[nH]c2=S)cc1
13 | -7% | -6% | / | -3.6% | CC(Oc1ccc(F)cc1F)C(=O)NNC(=S)NCC1CCCO1 (stereo unspecified)
14 | 7% | / | / | 2.8% | CCN(C(=S)NC(=O)Cc1ccc(OC)cc1)c1ccccc1
15 | 0% | -1% | / | 3.2% | CCn1cnc2c1c(=O)n(CC(=O)OC(C)C(N)=O)c(=O)n2Cc1ccccc1 (stereo unspecified)
16 | -1% | -19% | -9 | -0.8% | CC(CN(C)Cc1ccccc1)OC(=O)c1ccc2c(c1)OCCO2 (stereo unspecified)
17 | 1% | -6% | -16 | -1.2% | O=C(Nc1nc(-c2ccncc2)cs1)c1ccc(S(=O)(=O)N2CCOCC2)cc1
18 | ? | -34% | -2 | ? | CN(C)c1cc(O)c(C(=S)Nc2ccccc2)c(N(C)C)c1
19 | -18% | -15% | / | 0.6% | Cc1cc(C)c2c(n1)SCC(=O)N2CC(=O)Nc1cc(F)ccc1F
20 | 23% | -6% | -1 | -2.3% | CN(C1CCS(=O)(=O)C1)S(=O)(=O)c1ccc(N2CCCC2=O)cc1 (stereo unspecified)
21 | 3% | -26% | -11 | 1.1% | O=[N+]([O-])c1cccc(N/N=C/c2cc([N+](=O)[O-])ccc2O)c1
22 | -17% | / | / | -4.3% | Cc1ccc2nc(Cl)c(/C=N/NC(=O)CN3CCOCC3)cc2c1
23 | -26% | / | / | ? | CC(OC(=O)c1ccc(NC(=O)CC#N)cc1)C(=O)Nc1ccc2c(c1)OCCO2 (stereo unspecified)
24 | -9% | 3% | 5 | -2.5% | COCCn1c(=NC(=O)CSC(C)=O)sc2cc(OC)ccc21
25 | 2% | -5% | 2 | -1.8% | O=C(CN1C2=NCCN2c2ccccc21)N1CCOCC1
26 | 9% | -20% | -8 | 3.4% | O=C(NC1CCCCCCC1)c1ccco1
27 | 33% | -11% | 5 | 5.1% | Cc1csc(NC(=O)CCc2c(C)nc3cc(-c4cccc(F)c4)nn3c2C)n1
28 | 38% | / | / | -0.6% | COc1ccc(N2CCN(C(=O)c3ccc(S(=O)(=O)NCc4ccco4)cc3)CC2)cc1
29 | -12% | -4% | / | -0.1% | COc1ccc(OC)c(NC(=O)CCn2c(=S)[nH]c3ccccc3c2=O)c1
30 | -2% | -15% | 18 | -2.8% | CCc1nnc(NC(=O)c2ccncc2)s1

Single records, as listed above. Values in the order: Rango release inh	miR-21 FLuc	GLA inh pH 4.5	Rango-impB inh
Profile of O=[N+]([O-])c1cccc(N/N=C/c2cc([N+](=O)[O-])ccc2O)c1 → 3%	-26%	-11	1.1%
Profile of CCOC(=O)C1=C(C)Nc2nnnn2C1c1ccccc1Cl (stereo unspecified) → 1%	-3%	-2	-0.3%

Carrying on:
no. | Rango release inh | miR-21 FLuc | GLA inh pH 4.5 | Rango-impB inh | Molecule
31 | 1% | -3% | 0 | 5.6% | COc1cc(C(=S)N2CCCC2)cc(OC)c1O
32 | -7% | -15% | / | -1.0% | Cc1ccccc1OCc1ccc(C(=O)N2CCOCC2)o1
33 | -15% | 13% | / | -1.8% | CN(C)c1ccc(Nc2ncnc3ccc(Br)cc23)cc1
34 | 16% | 0% | -1 | -0.2% | COc1ccc(Sc2nc3ccccc3n3c(C(F)(F)F)nnc23)cc1
35 | 24% | -40% | -6 | 4.0% | CCOC(=O)c1cc2cc(C)ccc2[nH]1
36 | 1% | -3% | -2 | -1.6% | CC1CC(C)CN(CCCn2c(=S)[nH]c3ccccc3c2=O)C1 (stereo unspecified)
37 | 14% | / | / | -2.5% | COc1cc(-c2nnc(NC(=O)CS(=O)(=O)c3ccc(F)cc3)o2)cc(OC)c1OC
38 | -4% | 1% | 6 | -0.6% | COc1ccc(CCNC(=O)COC(=O)CCC(=O)c2ccc(F)cc2)cc1OC
39 | 2% | -4% | 3 | -0.1% | Cc1cc(C)c(S(=O)(=O)O)c(C)n1
40 | 4% | -12% | 0 | -1.6% | O=C(CCc1nnc(CCCCc2ccccc2)o1)NCc1cc(F)ccc1F
41 | ? | 0% | 11 | ? | CC1Cc2ccccc2N1Cc1nc2cc(Cl)ccc2c(=O)[nH]1 (stereo unspecified)
42 | -15% | 3% | -8[21.1 µM] | 1.2% | CC(=O)Nc1cc([N+](=O)[O-])ccc1N1CCOCC1
43 | -3% | 1% | -11 | 2.3% | CCOC(=O)c1c(NC(=O)CCN2C(=O)c3ccccc3C2=O)sc(C(=O)OC(C)C)c1C
44 | -4% | -4% | 3 | -7.0% | OCC1CCCCN1CCNCc1cn[nH]c1-c1cccc2ccccc12 (stereo unspecified)
45 | 1% | -35% | -1 | -2.4% | O=c1[nH][nH]c(=O)c2c(NS(=O)(=O)c3ccccc3)cccc12
46 | ? | 1% | / | 5.1% | CCc1ccccc1NC(=O)CCS(=O)(=O)c1ccc(C)cc1
47 | -17% | 2% | / | 1.4% | O=C(O)c1cccc2c1C(=O)N(Cc1ccccc1)C2
48 | 6% | -1% | -3 | 3.2% | CCCCN(C)C(=O)c1nc2ccccn2c1CNCCCn1ncc2ccccc21
49 | 1% | / | / | -2.8% | CC(=O)c1c(C)[nH]c(C(=O)OCC(=O)N2CCN(S(=O)(=O)c3ccc(C)cc3)CC2)c1C
50 | -1% | 10% | 0 | 1.0% | O=c1[nH]c(=O)n(-c2ccc(F)cc2)c2c1C(C(F)(F)F)(C(F)(F)F)N=C(c1ccc(F)cc1)N2
51 | 28% | 4% | / | -0.6% | COc1cc(/C=N/NC(=O)c2nnn(-c3nonc3N)c2C(C)C)ccc1OCc1ccccc1
52 | 6% | -5% | 2 | 0.1% | CCN(c1ccc(NC(=O)COC(=O)c2ccc(C)c(S(=O)(=O)N3CCOCC3)c2)cc1)C(C)C
53 | -9% | -9% | / | 2.8% | COC(=O)c1cn(CCC#N)nc1-c1ccc2ccccc2c1
54 | 19% | -3% | 3 | 0.2% | CC(=O)c1cccc(NC(=O)N2CCCC2C(=O)NCc2ccccc2)c1 (stereo unspecified)
55 | 3% | 0% | 3 | 2.3% | CCn1cc(C(=O)Nc2ccc(OC)c(OC)c2)c2cc(OC)c(OC)cc2c1=O
56 | -4% | -1% | -2 | -3.1% | O=C(CN1CCCCC1)Nc1cccc(Cl)c1
57 | 15% | -22% | 0 | -0.9% | Cc1nn(CC(O)COc2ccc3c(c2)CCC3)c(C)c1C (stereo unspecified)
58 | -3% | -79% | 1 | -1.1% | O=C(COC(=O)c1ccc[nH]c1=O)NCCc1ccc(Cl)cc1Cl
59 | -14% | 0% | / | 1.9% | COc1ccc(NC(=O)C(=O)NCCN2CCN(C(=O)c3ccc(C)cc3)CC2)cc1
60 | 1% | 3% | -13 | 5.5% | COCC(C)n1c(SCc2ccc(OC)c(F)c2)nc2ccccc2c1=O (stereo unspecified)

Three of the entries above in order of the Rango release inh value, rising.
no. | Rango release inh | miR-21 FLuc | GLA inh pH 4.5 | Rango-impB inh | Molecule
59 | -14% | 0% | / | 1.9% | COc1ccc(NC(=O)C(=O)NCCN2CCN(C(=O)c3ccc(C)cc3)CC2)cc1
36 | 1% | -3% | -2 | -1.6% | CC1CC(C)CN(CCCn2c(=S)[nH]c3ccccc3c2=O)C1 (stereo unspecified)
48 | 6% | -1% | -3 | 3.2% | CCCCN(C)C(=O)c1nc2ccccn2c1CNCCCn1ncc2ccccc21

Next part.
no. | Rango release inh | miR-21 FLuc | GLA inh pH 4.5 | Rango-impB inh | Molecule
61 | -6% | -9% | 6 | 3.6% | COC(=O)C1=C(N)Oc2cc(C)n(Cc3cccnc3)c(=O)c2C1c1ccc(OC)c(OC)c1OC (stereo unspecified)
62 | 11% | / | / | -2.3% | O=C(CCNC(=O)c1ccccc1)NCCCc1ccccc1
63 | 11% | -1% | 5 | 5.3% | CCCC(=O)Nc1c(O)c2ccccc2[nH]c1=O
64 | -4% | 0% | / | 0.8% | Cc1onc(-c2c(Cl)cccc2Cl)c1C(O)c1ccc(F)cc1 (stereo unspecified)
65 | -11% | 0% | / | 0.3% | O=C(CN1CCN(c2ccccc2F)CC1)c1ccc(O)cc1O
66 | 7% | 1% | / | 0.7% | CCn1cc(CN2CCC(n3nccc3NC(=O)c3ccccc3C)CC2)c(C)n1
67 | -28% | 1% | / | -5.1% | CCCc1nnc(NC(=O)C23CC4CC(CC(C4)C2)C3)s1
68 | -9% | -13% | -10 | 6.3% | S=C(Nc1ccccc1)Nc1ccc(Br)cn1
69 | -8% | 16% | -9 | -2.4% | CCN(Cc1ccccc1)S(=O)(=O)c1cc(C(=O)NC2CCCCCC2)ccc1OC
70 | 14% | -2% | -1 | -3.1% | CCCCNC(=O)CCNS(=O)(=O)c1ccc(C)cc1
71 | 4% | -4% | -2 | -1.4% | O=C1c2ccccc2C(O)(Cc2ccccc2)N1CCCN1CCOCC1 (stereo unspecified)

Some of the compounds tested, so the mix of outcomes need not match the whole.
